Source: PubChem BioAssay (National Center for Advancing Translational Sciences (NCATS))
Marburg entry inh – qHTS for inhibitors of binding or entry into cells for Marburg Virus; Marburg virus pseudotyped entry inhibition, cell reporter; control for the full effect not named in the record; about a third of the inactives were read at about 46 µM; Potency, µM (doses to about 37.8 µM), inactives show at the top dose activity change, negative = inhibition, hits mostly inhibitors; 300,000 tested, 1.8% active; active = well fitted inhibition curve with a large enough effect; inconclusive = small, poorly fitted or top-dose-only effect, or effect the other way; inactive = flat fitted curve, though single readings scatter; tested in HEK293 cells; about a fifth of its hits are not listed in these tables; note: % is set by controls: 0 for no effect and ±100 for the full control effect; luciferase read-out
Cruzain inh Det – qHTS Assay for Promiscuous and Specific Inhibitors of Cruzain (with detergent) | AID 1478, 2009 | Potency, µM, without a hit: max response, negative = inhibition, hits mostly inhibitors | purified cruzain, Z-FR-AMC fluorescence, 0.01% Triton | 200,000 tested, 0.43% active;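 note: plate controls were neutral wells for no effect and buffer without enzyme for full effect; nearly all actives have a fitted effect of over 40% in size; top concentration of the series not given in the record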
Target sequence (P25779 123-467 limits assumed): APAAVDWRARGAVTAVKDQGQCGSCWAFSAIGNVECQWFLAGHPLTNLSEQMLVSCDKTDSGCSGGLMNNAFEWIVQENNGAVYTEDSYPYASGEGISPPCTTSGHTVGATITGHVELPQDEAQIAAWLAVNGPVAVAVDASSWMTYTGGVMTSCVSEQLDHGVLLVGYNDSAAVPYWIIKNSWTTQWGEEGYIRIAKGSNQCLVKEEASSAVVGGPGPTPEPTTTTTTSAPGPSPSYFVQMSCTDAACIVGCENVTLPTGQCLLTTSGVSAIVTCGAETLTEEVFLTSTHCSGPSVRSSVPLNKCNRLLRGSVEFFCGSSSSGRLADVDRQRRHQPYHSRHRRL
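Compounds were screened in titration against cruzain (1.5 nM) with 0.01% Triton X-100 to counter colloidal aggregation. Activity was the AMC fluorescence increase over 60 s after adding 2 uM Z-FR-AMC at pH 5.5.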
LASV entry inh – qHTS for Inhibitors of binding or entry into cells for Lassa Virus. Lassa virus pseudotype entry inhibition, cell reporter; control for the full effect not named in the record. Potency, µM (series often up to 37.9 µM), inactives show at the highest dose activity change, negative = inhibition, most hits filed as inhibitors. 300,000 tested, 1.2% active. AID 540256, 2011; active means well fitted inhibition curve with a large enough effect; inconclusive means small, poorly fitted or top-dose-only effect, or effect the other way; inactive means flat fitted curve, though single readings scatter; tested in HEK293 cells; note: % is set by controls: 0 for no effect and ±100 for the full control effect; nearly all actives have a fitted effect of over 50% in size; luciferase read-out
StopGo reporter – High Throughput Screening for Foot and Mouth Disease Virus Antivirals. human cells with a luciferase reporter of 2A StopGo recoding; control for the full effect not named in the record. Potency, µM (top dose mostly 57.9 µM), for inactives: at the highest dose signal change, negative = less light. 410,000 tested, 1.2% active; active = well fitted falling curve with a large enough effect; inconclusive = small, poorly fitted or top-dose-only effect; inactive = no such curve, though single readings can be large or run the other way; tested in HEK293T cells; note: % is set by controls: 0 for no effect and ±100 for the full control effect; nearly all actives have a fitted effect of over 45% in size; luciferase light after 4 h
RE007 growth inh – qHTS Assay for Inhibitors of the HIV-1 protein Vpr; S. pombe RE007 Vpr strain, BacTiter-Glo ATP luminescence, 24 h; control for the full effect not named in the record; Potency, µM (top dose mostly 92.2 µM), inactives show at the top dose activity change, negative = less growth; 360,000 tested, 0.21% active; active = well fitted falling curve with a large enough effect; inconclusive = small, poorly fitted or top-dose-only effect; inactive = no such curve, though single readings can be large or run the other way;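 note: % is set by controls: 0 for no effect and ±100 for the full control effect; nearly all actives have a fitted effect of over 50% in size; the assay follows cell death caused by Vpr and the record does not say whether a fall means rescue or toxicity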
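Fission yeast strain RE007, carrying one chromosomally integrated HIV-1 vpr copy, was seeded at OD 0.01 in PMG+AL medium with 23 nL pinned compound. After 24 h at 30 °C and 99% humidity, viability was read by BacTiter-Glo luminescence.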
SARS PLP yeast – qHTS of Yeast-based Assay for SARS-CoV PLP. Potency, µM (doses to about 32.9 µM), for inactives: at the highest dose activity, positive = growth rescue. AID 485353, 2010. S. cerevisiae expressing SARS-CoV PLpro, growth rescue; control for the full effect not named in the record. 330,000 tested, 0.19% active; active means well fitted rising curve with a large enough effect; inconclusive means small, poorly fitted or top-dose-only effect; inactive means no such curve, though single readings can be large or run the other way; note: 0% is about no effect; nearly all actives have a fitted effect of over 55% in size; growth read by luminescence after 48 h
Cruzain inh noDet – qHTS Assay for Promiscuous and Specific Inhibitors of Cruzain (without detergent) | 200,000 tested, 2.3% active | AID 1476, 2009 | Potency, µM, inactives show max response, negative = inhibition, usual class: inhibitors | purified cruzain, Z-FR-AMC fluorescence, no detergent;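 note: plate controls were enzyme without inhibitor for no effect and buffer without enzyme for full effect; nearly all actives have a fitted effect of over 40% in size; top concentration of the series not given in the record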
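Purified cruzain at 1.5 nM, pre-incubated 15 min with compound at room temperature in 100 mM sodium acetate pH 5.5, 5 mM DTT, 0.00005% Triton X-100. Reaction started with 2 uM Z-FR-AMC; AMC fluorescence increase over 60 s gives rate.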
NS1 function inh – qHTS Assay for Inhibitors of Influenza NS1 Protein Function | 270,000 tested, 0.4% active | Potency, µM (highest dose often 46.1 µM), inactives show at the top dose activity, positive = more growth | S. cerevisiae slowed by influenza A NS1, growth recovery by OD600; active means well fitted rising curve with a large enough effect; inconclusive means small, poorly fitted or top-dose-only effect; inactive means no such curve, though single readings can be large or run the other way; note: nearly all actives have a fitted effect of over 50% in size
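A cell-based growth assay was used: compounds that relieve NS1-induced slow growth of budding yeast raise OD600. Assay medium was yeast nitrogen base with ammonium sulphate and -URA supplement, pH 6.0, with 2% galactose.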
The depositor's hits bear a star; ? = inconclusive; . = no result given; & = joins results of further samples; [ ] = remark or other dose. Unless noted, calls come from the whole dose curve; as a rule, active = well fitted curve in the direction sought with a large enough effect; inconclusive = small, poorly fitted or top-dose-only effect, or another doubt; inactive = no such curve, though single readings can be large; an effect the other way counts as inactive or inconclusive. Potency is the fitted concentration of half-maximal effect.

Results follow in this order: LASV entry inh | Marburg entry inh | StopGo reporter | RE007 growth inh | Cruzain inh noDet | SARS PLP yeast | NS1 function inh | Cruzain inh Det
> CCCCOC(=O)Oc1ccc2c(=O)c(Oc3cc(C)cc(C)c3)coc2c1
→ 9% | ? | -11% | 19% | -2% | ? | 8% | -8.7%
> COc1cc(C2NC(=O)C(C#N)=C(S)N2c2ccc(C)cc2)ccc1OC(C)C (configuration not stated)
→ 3% | 4% | 9% | -12% | 2% | -27% | -49% | -6.2%
> Cc1ccc(CSCC(=O)NCc2ccc(F)cc2)cc1
→ -6% | -18%&-18% | -12%&-9% | 3% | -3% | -5% | . | 0.6%
> Nc1nc(SCC(=O)Nc2c(Br)cc([N+](=O)[O-])cc2Br)n[nH]1
→ -13% | 4% | -5% | 2% | 3% | -6% | ? | 1.3%
> COc1ccc(CCC(=O)NCc2nc3cccnc3n2Cc2ccc(C)cc2)cc1
→ -1%[46.1 µM] | . | -10% | . | 21% | . | . | -4.7%
> O=C(CCN1C(=O)/C(=C/c2ccc(F)cc2)SC1=S)NC1C=CS(=O)(=O)C1 (configuration not stated)
→ . | . | -2% | 0% | . | ? | 2% | .
> CC(C)CN(CCOc1cccc(N2C(=O)C3=C(CCCC3)C2=O)c1)CC(C)C
→ 8% | -30% | ? | -8% | -24% | -4% | 0% | -13%
> CCCCC(=O)NC(=S)NNS(=O)(=O)c1ccccc1
→ 20% | ? | -6% | -9% | -5% | 11% | -7% | -10%
> CCOC(=O)c1ccc(Nc2cc(C)nc(N3CCOCC3)n2)cc1
→ -24% | ? | 0% | -15% | -3% | 2% | -61% | 1.0%
> COc1ccc(/C=N/Nc2nc(C)cc(-c3ccccc3)n2)cc1OC
→ -24%[46.1 µM] | ? | -8% | -5% | . | 24% | -9% | .
> O=C(COC(=O)CCNS(=O)(=O)c1ccc2c(c1)OCCO2)NC1CCCc2ccccc21 (configuration not stated)
→ -7% | -10% | -11% | 14% | 6% | -2% | -7% | -4.8%
> CC(=O)N1CCSc2ccc(S(=O)(=O)NCCc3cccc(C)c3)cc21
→ -29%[46.1 µM] | ? | 12% | -12% | . | 5% | 2% | .
> O=S(=O)(Cc1cc(Cl)nc(-c2cccnc2)n1)c1ccccc1
→ ? | ? | -8% | -1% | . | 2% | 18% | .
> COc1ccc(-c2nn(C)c(=O)c3ccccc23)cc1NC(=O)Cn1nc(C)c2ccccc2c1=O
→ ? | 1%&-22% | . | 10% | ? | -4% | -6% | -1.8%
> O=C1CCc2cc(S(=O)(=O)Nc3cccc(F)c3)cc3c2N1CC3
→ -28% | -15%[46.1 µM] | 37%[activator] | 0% | . | ? | . | .
> CC(=O)c1cccc(NC(=O)c2ccc(C)c(S(=O)(=O)N3CCOCC3)c2)c1
→ . | -6%[46.1 µM] | 2% | -6% | . | -3% | -19% | .
> O=[N+]([O-])c1cccc(-c2ccc(/C=N/NC(=S)Nc3ccccc3)o2)c1
→ -4% | -6% | -6% | -3% | ? | ? | 16% | -7.4%
> N#CC1=C(N)N(c2ccc(Cl)cc2)C2=C(C(=O)CCC2)C1c1cc(CN2CCOCC2)cs1 (configuration not stated)
→ -23%[46.1 µM] | ? | -15% | . | 14% | . | . | 1.5%
> COc1cc(C(=O)OCC(=O)NCC2CCCCC2)ccc1OCC(C)C
→ -15% | 0%[46.1 µM] | -6% | -7% | . | -4% | . | .
> O=C(COC(=O)c1ccccn1)Nc1cccc(Cl)c1Cl
→ 7% | 9% | 9% | -13% | 13% | -7% | -35% | 0.7%
> Cc1ccc(S(=O)(=O)N2CCN(CC(=O)N/N=C\c3ccc(O)c(O)c3)CC2)cc1
→ . | . | -13% | 9% | . | 5% | 6% | .
> Cc1ccc(CNS(=O)(=O)c2c(C(=O)N3CCC(C)CC3)c(C)n(C)c2C)cc1
→ -4%[46.1 µM] | . | 48%[activator] | . | 2% | . | . | 0.5%
> O=[N+]([O-])c1cccc(-c2nnc(-c3ccccc3F)o2)c1
→ . | . | 63%[activator] | ? | . | -1% | -12% | .
> CCOc1cc(S(=O)(=O)NCc2cccs2)ccc1Cl
→ -12% | 3% | 33%[activator] | -20% | -2% | -4% | -6% | -5.9%
> CC(C)c1cc(C(=O)N/N=C/c2ccoc2)cs1
→ . | . | 85%[activator] | 5% | . | -10% | 8% | .
> CCOc1ccc2[nH]c(=O)c(CN(Cc3nnnn3Cc3ccco3)C3CCCCC3)cc2c1
→ ? | 10µM* | -23% | 3% | 10µM* | -2% | ? | 6.3µM*
> CCOC(=O)COc1ccc(S(=O)(=O)N2CCN(C(=O)OCC)CC2)cc1
→ -2% | -8% | -9% | -13% | 4% | -15% | -1%[9.22 µM] | 8.6%
> Cc1ccc2c(c1)N(CC(=O)N1CCN(c3ccccc3)CC1)C(=O)C(C)O2 (configuration not stated)
→ 7% | -13%[46.1 µM] | -16% | 0% | . | 0% | -4% | .
> CCOc1ccccc1Nc1cc(-c2ccccc2)nc(C)n1
→ 12%[46.1 µM] | -25%[46.1 µM] | -25% | . | -8% | . | . | -10%
> c1ccc(CCn2nnnc2CN2CCCc3ccccc32)cc1
→ 22% | 6% | 25% | -8% | -13% | 2% | -6% | -6.7%
> COc1cccc(OC(C)c2ccnc3nc(/N=C/N(C)C)nn23)c1 (configuration not stated)
→ ? | -4% | -29% | -4% | 0% | 13% | ? | 2.5%
> COc1ccc(-c2c(-c3cc(OC)cc(OC)c3)n(C)c3ccc(-c4ccc5[nH]ccc5c4)cc23)cc1
→ . | -1% | -2% | 0% | . | 6% | . | .
> CCOC(=O)C(=CNc1ccc(S(N)(=O)=O)cc1)C(=O)OCC
→ ? | -22%[46.1 µM] | -22% | -22% | . | 1% | -3% | .
> O=C(CSc1nnc(-c2cccc(S(=O)(=O)N3CCCCC3)c2)o1)NCCC1=CCCCC1
→ 0% | 1%&1% | 3% | -1% | 1% | 1% | 1% | -1.4%
> O=C(c1ccccc1)N1N=C(c2cccs2)CC1c1ccccc1O (configuration not stated)
→ . | . | -2% | 12% | . | -9% | -59% | .
> CCCCCCC(=O)Nc1ccc(Br)cn1
→ . | . | 20% | -9% | . | -1% | -24% | .
> Cc1ccc(N2CCN(/N=C/C3=C(N4CCOCC4)C(=C\c4ccccc4)/CC3)CC2)cc1
→ -4%[46.1 µM] | 15%[46.1 µM] | -16% | 0% | . | 3% | -1% | .
> O=C(Cc1ccccc1)OCn1nnc2ccccc2c1=O
→ 11% | 11% | . | -11% | 0% | -10% | -4% | -1.9%
> CCc1ccc(NC(=S)N2CCCC2)cc1
→ 0%[46.1 µM] | 10%[46.1 µM] | 20% | 1% | . | 2% | 3% | .
> CCc1nnc(NS(=O)(=O)c2ccc(NC(=O)c3cccc4ccccc34)cc2)s1
→ 24%[46.1 µM] | ? | 0% | 9% | . | 2% | . | .
> c1ccc(-c2ccccc2OCCCCN2CCCCC2)cc1
→ ? | 7.1µM* | -24% | -15% | -11% | -4% | -9% | 1.0%
> C=CCn1c(SCC(=O)NCc2ccco2)nc2sc(C)c(C)c2c1=O
→ 27% | -1% | 5% | -1% | . | . | . | .
> Cc1cc(C)c(NC(=O)Cn2c(=O)n(-c3cccc(C(F)(F)F)c3)c(=O)c3c(C)c(C)sc32)c(C)c1
→ 6%[46.1 µM] | -31%[46.1 µM] | -8% | . | -9% | . | . | -1.5%
> c1ccc2oc(N3CCNCC3)nc2c1
→ 5% | 3% | 0% | -8% | 9% | -1% | -11% | -3.8%
> CN(CC(=O)NC1CC1)S(=O)(=O)c1cc(Cl)ccc1Cl
→ 27%[46.1 µM] | -16%[46.1 µM] | -19% | -1% | . | 0% | -1% | .
> O=C1CC(c2c[nH]c3ccccc23)C(=O)N1c1ccccc1 (configuration not stated)
→ -7% | 11% | 24% | -3% | -7% | 6% | 6% | 0.0%
> Cc1cccn2c(=O)nc(SCC(=O)NC3CCCCC3)nc12
→ -10% | -13%[46.1 µM] | 3% | 19% | . | -3% | . | .
> COCCCNC(=O)c1nc2ccccc2c(=O)n1NC(=O)Nc1c(Cl)cccc1Cl
→ 7% | 11% | -11% | 14% | . | 2% | 0% | .
> O=C(Nc1cccc(S(=O)(=O)NC2=NCCC2)c1)c1cc(Cl)ccc1[N+](=O)[O-]
→ 4% | 2% | 70%[activator] | -4% | . | -1% | . | .
> COc1ccccc1C(=O)Nn1cnc2ccccc2c1=O
→ ? | 14% | . | 8% | 1% | -1% | -20% | 1.6%
> COc1ccc(Nc2oc(-c3ccc(COc4ccccc4)o3)nc2C#N)cc1
→ -5%[46.1 µM] | 1%[46.1 µM] | -6% | . | ? | . | . | 2.0%
> Cc1ccc(N(CC(=O)NC2CCCCC2)C(=O)CNC(=O)c2ccco2)c(C)c1
→ 3%[46.1 µM] | -2%[46.1 µM] | 19% | -4% | . | -1% | 9% | .
> Nc1nc(SCC(=O)Nc2ncc(C(F)(F)F)cc2Cl)n[nH]1
→ -3% | 5%[46.1 µM] | 10% | -1% | . | 0% | -4% | .
> CN(C)CCCNC(=O)/C(=C\c1ccc(-c2cccc([N+](=O)[O-])c2)o1)NC(=O)c1ccccc1
→ -26% | ? | -22% | -4% | . | -1% | -2% | .

Record cards, as listed above.
`COCCCNC(=O)c1nc2ccccc2c(=O)n1NC(=O)Nc1c(Cl)cccc1Cl` reads LASV entry inh: 7%; Marburg entry inh: 11%; StopGo reporter: -11%; RE007 growth inh: 14%; Cruzain inh noDet: .; SARS PLP yeast: 2%; NS1 function inh: 0%; Cruzain inh Det: .
`Nc1nc(SCC(=O)Nc2ncc(C(F)(F)F)cc2Cl)n[nH]1` reads LASV entry inh: -3%; Marburg entry inh: 5%[46.1 µM]; StopGo reporter: 10%; RE007 growth inh: -1%; Cruzain inh noDet: .; SARS PLP yeast: 0%; NS1 function inh: -4%; Cruzain inh Det: .

Compounds were not picked by outcome. Share with any hit: about 4.5%.
